Screens: PubChem BioAssay, several laboratories
ALR H2O2 inh: blocks human ALR sulfhydryl oxidase activity | P55789 | purified ALR, DTT oxidation, H2O2 HRP-luminol luminescence | inhibition, % (test concentration not listed) | hit rate 3.8% among 290,000;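 active means mean and each replicate at 75% or more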;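 further: stock transfer was 7.5 nL into about 7.5 µL; 0% = neutral wells and 100% = wells with inactivated enzyme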
HNF4A DNA FP: change in binding of human HNF4 alpha to DNA | P41235 | HNF4a-FITC DNA binding, fluorescence polarization, 1 h | activity change, % at 10 µM | hit rate 0.3% among 360,000; in the data active means activity change above about 30%, passing the limit was not always enough;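 further: controls were the assay level and a saturating level of protein; the project sought stronger binding though the title names inhibitors; some compounds called inactive have numbers as strong as hits; positive values seem to mean higher polarization but the record does not say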
Target sequence (P41235 whole entry, looked up): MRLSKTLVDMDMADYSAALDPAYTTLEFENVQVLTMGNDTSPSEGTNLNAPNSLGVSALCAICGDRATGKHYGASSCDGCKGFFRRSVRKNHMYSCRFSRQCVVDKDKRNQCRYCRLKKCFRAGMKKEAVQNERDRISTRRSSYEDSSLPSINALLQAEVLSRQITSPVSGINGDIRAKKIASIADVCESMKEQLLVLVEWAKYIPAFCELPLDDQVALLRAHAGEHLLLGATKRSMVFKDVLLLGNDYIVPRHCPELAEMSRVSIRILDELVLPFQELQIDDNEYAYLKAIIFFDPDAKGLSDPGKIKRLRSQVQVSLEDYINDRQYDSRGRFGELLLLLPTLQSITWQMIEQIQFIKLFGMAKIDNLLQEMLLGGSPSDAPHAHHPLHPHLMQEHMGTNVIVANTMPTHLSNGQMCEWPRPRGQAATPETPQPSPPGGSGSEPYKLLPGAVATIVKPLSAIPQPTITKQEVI
B2AR ag: human beta-2 adrenergic receptor agonism by FAP; Am2.2-beta2AR cells, FAP receptor internalization, flow cytometry; reference of the scale not given here; response, % (test concentration not listed); hit rate 0.43% among 340,000;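 active means response above a set limit, near 3 SD of response in nonfluorescent compounds, cut at about 42% in these data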;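 further: stock transfer was 100 nL into about 11 µL; a reference agonist was the positive control; negative values mostly stem from fluorescent compounds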
Target sequence (P07550 whole entry, looked up): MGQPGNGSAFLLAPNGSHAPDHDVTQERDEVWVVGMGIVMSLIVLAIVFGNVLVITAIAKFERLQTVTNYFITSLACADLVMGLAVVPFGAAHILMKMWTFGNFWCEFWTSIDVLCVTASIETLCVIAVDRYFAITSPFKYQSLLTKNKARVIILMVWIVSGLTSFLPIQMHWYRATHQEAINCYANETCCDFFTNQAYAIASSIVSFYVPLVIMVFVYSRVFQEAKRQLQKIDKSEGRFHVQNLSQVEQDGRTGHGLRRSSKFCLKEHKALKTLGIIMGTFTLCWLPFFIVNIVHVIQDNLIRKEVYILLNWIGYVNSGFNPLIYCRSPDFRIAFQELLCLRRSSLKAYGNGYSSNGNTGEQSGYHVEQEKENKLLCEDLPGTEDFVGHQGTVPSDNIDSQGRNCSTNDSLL
FGF22 binding: FGF22 (human) thermal shift binding; recombinant FGF22 thermal shift, SYPRO orange fluorescence; percent of sucrose octasulfate shift, DMSO zero; calls only at 9.99 µM; hit rate 1.5% among 340,000;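 active means melting point raised past a set limit in the mean and every replicate; three in four hits are not shown here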
Target sequence (Q9HCT0 whole entry, looked up): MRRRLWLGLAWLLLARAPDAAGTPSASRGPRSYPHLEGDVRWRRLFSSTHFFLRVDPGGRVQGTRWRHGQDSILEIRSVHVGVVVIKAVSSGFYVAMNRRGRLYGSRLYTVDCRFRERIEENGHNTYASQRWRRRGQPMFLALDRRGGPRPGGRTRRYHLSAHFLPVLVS
Ecoli rRNA inh: selective bacterial rRNA inhibition in E. coli | hit rate 1.6% among 350,000 | E. coli WT GFP vs humanized-ribosome RFP mutants, fluorescence, 24 h; hits give low values; DMSO median 0, no signal -100 | GFP signal change (wild-type ribosome), % (test concentration not listed);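 active means significant combined selectivity score with lowered wild-type GFP, culture density cut under 30%, mutant RFP and density less affected; inactive means any of these conditions unmet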; further: one replicate is shown; some compounds called inactive have numbers as strong as hits
Ecoli growth: blocks Escherichia coli growth | OD600, 23 h; hits give low values | OD600 absorbance (no concentration beside the values) | hit rate 0.21% among 330,000;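 active means OD600 absorbance below the run mean of sample wells minus 3.6 SD, in any replicate, cut at about 0.56 in these data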;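 further: stock transfer was 300 nL into about 60 µL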
UCH37 inh: blocks the human deubiquitinase UCH37. Q9Y5K5. purified proteasome/UCH37, Ub-AMC cleavage fluorescence. inhibition, % (concentration not given with the values). hit rate 0.33% among 330,000. AID 588478;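 active means mean of two replicates above 20%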;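 further: 0% = compound-free wells with enzyme and 100% = wells lacking proteasome; stock transfer was 100 nL into about 20 µL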
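assay system = human UCH37 enzyme supplied as purified proteasome complex | amount = proteasome at 0.15 nM in the dispensed enzyme solution | schedule = 30 min compound-proteasome preincubation then 25 min substrate reaction, room temperature | measured by = fluorescence, ex 355 nm, em 460 nm | benchmarks = no-proteasome wells (full inhibition) and compound-free wells (no inhibition)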
Ecoli rRNA inh OD600: also measured in Ecoli rRNA inh; calls as there; OD600 change, %; measured here: OD600 growth;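 optical density of the mix in the first replicate; 0 = DMSO median and -100 = no signal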
Ecoli rRNA inh RFP: also measured in Ecoli rRNA inh; calls as there; RFP signal change, %; measured here: RFP humanized mutant strains;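 first replicate; 0 = DMSO median and -100 = no signal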
Starred values were filed as active, the others as inactive; i = inactive; . = not tested or not shown.

| compound | ALR H2O2 inh | HNF4A DNA FP | B2AR ag | FGF22 binding | Ecoli rRNA inh | Ecoli rRNA inh OD600 | Ecoli rRNA inh RFP | Ecoli growth | UCH37 inh |
| --- | --- | --- | --- | --- | --- | --- | --- | --- | --- |
| CCOC(=O)Cn1c(CN(Cc2ccccc2)Cc2ccccc2)nc2c1c(=O)n(C)c(=O)n2C | -7.2 | 2.1 | 12.4 | . | . | . | . | 0.688 | 6.0 |
| COc1ccccc1N1CCN(S(=O)(=O)c2ccc(-n3cnnn3)cc2)CC1 | -6.6 | -0.2 | -10.4 | i | -6.3 | -8.9 | 1.4 | 0.7 | 9.0 |
| Cc1cn(CC2COC(C)(C)O2)c(=O)[nH]c1=O (configuration not stated) | -3.7 | 1.9 | -1.8 | . | . | . | . | 0.68 | 0.7 |
| CCN(CC)C(=O)[C@H]1C[C@H](CC(=O)NC/C=C(\C)CCC=C(C)C)C(=O)N2CCc3c([nH]c4ccc(Cl)cc34)[C@]12C | . | 0.0 | 5.4 | i | 4.6 | 9.3 | 1.0 | 0.72 | 0.2 |
| O=C1C(c2ccccc2)=[N+]([O-])c2ccccc21 | 91.4* | -2.4 | 25.3 | i | 3.5 | -25.2 | 6.1 | 0.627 | -16.7 |
| CCn1cc(C(=O)NCC2COc3ccccc3O2)c2cc(OC)c(OC)cc2c1=O (configuration not stated) | 3.8 | -3.4 | -11.0 | . | . | . | . | 0.719 | 6.2 |
| Cc1cccc(NC(=O)c2cccc(N3C(=O)C4C5C=CC(C6CC56)C4C3=O)c2)c1 (configuration not stated) | 89.1* | -0.4 | 6.3 | i | 6.2 | 13.9 | 0.7 | . | . |
| COc1ccccc1N1CCN(C2CCCN(C(=O)CCc3c(C)noc3C)C2)CC1 (configuration not stated) | 93.8* | 0.6 | -4.9 | i | 12.8 | 15.3 | 4.4 | 0.666 | 2.8 |
| C#CCNC(=O)c1ccc2sc([C@@H]3O[C@H](CO)[C@H](O)[C@H](O)[C@H]3O)nc2c1 | . | -0.1 | . | i | 5.3 | 16.3 | 0.2 | . | . |
| Cc1ccccc1OCC(=O)NNC(=O)CSc1nc(N)cc(N)n1 | 2.6 | 1.6 | -2.4 | i | 4.0 | -2.7 | 0.2 | 0.693 | 4.8 |
| Cc1ccccc1CS(=O)(=O)Cc1ccc(C(=O)NCc2cccnc2)o1 | -4.6 | 1.1 | 3.2 | . | . | . | . | 0.686 | 4.8 |
| O=C(CCS(=O)(=O)CCN1CCOCC1)NCNC(=O)CCS(=O)(=O)CCN1CCOCC1 | -11.3 | 2.2 | 4.9 | i | 11.3 | 13.8 | 0.6 | 0.66 | 1.9 |
| OCC1(Cc2ccccc2C(F)(F)F)CCN(Cc2cccc3cnccc23)CC1 | . | -1.3 | 9.4 | i | -14.1 | -23.4 | -2.7 | 0.676 | 0.7 |
| Cc1ccc(-n2ncc3c(NCCCn4ccnc4)ncnc32)c(C)c1 | 1.7 | 1.3 | -9.3 | i | 5.2 | 7.3 | 0.1 | 0.75 | 5.9 |
| COc1cc(NC(=O)c2ccc(COCC(F)(F)F)o2)cc(OC)c1OC | -3.3 | 1.8 | -3.8 | . | -0.6 | -1.8 | 1.6 | 0.721 | 0.1 |
| CCN(CC(=O)Nc1ccc2c(c1)OCCO2)C(=O)c1cccc(OCC(C)C)c1 | 0.4 | -0.2 | -14.5 | i | 1.0 | -18.8 | 1.5 | 0.655 | -0.9 |
| CC1(C(=O)NS(=O)(=O)c2ccccc2Cl)CCN1C(=O)C/C=C/c1ccccc1 (configuration not stated) | . | 5.2 | . | i | 2.3 | 14.9 | 0.5 | . | . |
| CCc1ccccc1N(CC)C(=O)c1cn(CC)c(=O)c2cc(OC)c(OC)cc12 | -4.1 | 1.4 | -18.2 | . | . | . | . | 0.719 | 2.6 |
| CC(=O)NCCCC(=O)NN1C(=S)N(Cc2ccccc2)C(=O)C1CC(=O)Nc1cccc(C)c1 (configuration not stated) | 2.1 | -0.8 | -2.0 | i | -21.6* | -9.1* | -2.7* | 0.688 | 2.2 |
| O=C1c2ccccc2-c2c1cccc2C(=O)N1CCN(C(=O)c2ccco2)CC1 | 5.0 | 3.1 | -1.3 | . | . | . | . | 0.684 | 0.9 |
| CCOC(=O)c1cnc2c(-c3ccc(F)cc3)cnn2c1C(F)(F)F | . | 0.2 | 4.5 | . | . | . | . | 0.729 | -40.4 |
| O=C(Nc1cccc(C(F)(F)F)c1)C1CC(=O)N(Cc2ccco2)C1 (configuration not stated) | . | 0.4 | . | i | 5.5 | 9.3 | 1.1 | . | . |
| COc1cccc(-n2c(Cc3cc(=O)[nH]c(=O)[nH]3)nnc2SCc2cccc(C(F)(F)F)c2)c1 | -4.5 | -1.7 | -4.0 | i | 8.9 | 2.0 | 2.0 | 0.728 | 0.6 |
| CCn1cc(C(=O)NCCCN(C)C)c(=O)c2cc(F)c(N3CCN(C)CC3)cc21 | -5.4 | 0.1 | -0.3 | . | -52.8 | -77.8 | -23.7 | 0.0505* | -43.0 |
| Cn1c(CNC(=O)c2ccco2)nnc1SCC(=O)Nc1ccccc1Cl | . | 0.4 | -2.1 | i | 1.1 | 1.5 | 0.6 | 0.678 | 0.9 |
| O=C(c1ccco1)N1CCN(S(=O)(=O)c2ccc(Br)cc2)CC1 | 0.2 | -2.1 | -1.5 | i | 4.9 | -0.1 | 2.3 | 0.688 | 6.2 |
| CS(=O)(=O)Nc1ccccc1C(=O)NCc1ccccc1Cl | -6.9 | -1.4 | -2.8 | i | 20.0 | 18.2 | 2.6 | . | . |
| CCOC(=O)Cc1csc(NC(=S)NC(=O)c2cc(OC)c(OC)c(OC)c2)n1 | 5.8 | -1.2 | 7.2 | i | -17.4 | -13.8 | 13.2 | 0.653 | 2.2 |
| Brc1ccc(Cn2c(-c3ccc(Br)o3)nc3ccccc32)o1 | . | -0.9 | -2.0 | . | . | . | . | 0.693 | 0.8 |
| CC1Cc2ccccc2N1c1nc(C2CC2)nc2c1nnn2Cc1ccccc1 (configuration not stated) | . | 0.2 | -2.1 | . | . | . | . | 0.769 | -39.3 |
| CCCCNC(=O)C(NS(=O)(=O)c1cccc2nsnc12)c1ccccc1 (configuration not stated) | -18.6 | 4.1 | 7.4 | . | . | . | . | 0.688 | 1.7 |
| CCCCc1ncc(CN2CCC(n3nccc3NC(=O)c3ccccc3Cl)CC2)[nH]1 | 4.7 | -3.5 | 10.3 | i | 10.9 | 18.5 | 2.5 | 0.658 | 2.5 |
| COc1ccccc1N(C)S(=O)(=O)c1ccc(C(=O)OCC(=O)N2CCCCCC2)cc1 | -10.2 | 3.3 | -3.3 | i | -13.2 | -21.9 | 0.4 | 0.631 | 3.6 |
| O=C(COc1ccccc1)Nc1ccc(F)cc1 | 19.9 | 4.9 | -3.3 | i | 12.7 | 13.2 | -1.7 | 0.598 | 2.3 |
| CCC(=O)NC(c1ccccc1OC)c1ccc2cccnc2c1O (configuration not stated) | 30.8 | -2.4 | 1.9 | . | . | . | . | 0.66 | 2.9 |
| Cc1cccc(NC(=O)CSc2nc3sc(C)cc3c(=O)n2C)c1 | . | 3.0 | -6.3 | i | -2.6 | -17.4 | 0.6 | . | . |
| CCC1CCC/C1=N\NC(=O)CCC(=O)Nc1ccccc1Cl (configuration not stated) | -11.7 | -3.3 | 5.5 | i | . | . | . | . | . |
| CN1C(=O)N(CC(=O)N2CCN(c3ccccc3F)CC2)C(=O)C12CCCCC2 | -2.3 | -0.5 | -1.0 | i | 2.1 | -4.0 | -1.3 | 0.647 | 3.6 |
| COc1ccc(CN2CC[C@H]3C=CC[C@@H](C(=O)NCCc4ccccc4)[C@H]3C2=O)cc1OC | . | -1.9 | -8.2 | i | -24.0 | -37.7 | 21.2 | . | 0.5 |
| Cc1ccc(NC(=O)C2CC(=O)N(Cc3ccco3)C2)cc1 (configuration not stated) | -2.5 | 2.9 | -8.3 | i | 7.4 | 0.5 | 3.7 | 0.643 | 1.4 |
| S=C(Nc1ccccc1)N1N=C(c2cccs2)CC1c1cccs1 (configuration not stated) | 0.1 | 2.7 | -0.6 | i | -1.4 | -1.8 | 1.7 | 0.746 | 5.4 |
| CCCCn1c(N)c(N(C(=O)CSc2nncn2-c2ccccc2C)C2CCCC2)c(=O)[nH]c1=O | . | -0.5 | -6.5 | i | 3.1 | 14.4 | -3.4 | . | . |
| CCn1c(C(C)NC(=O)c2ccc(Cl)cc2)n[nH]c1=S (configuration not stated) | -7.8 | 8.0 | 0.8 | i | 12.2 | 9.0 | 4.3 | 0.731 | 1.3 |
| O=C(N/N=C\c1cn[nH]c1-c1ccc(Cl)cc1)c1cccs1 | . | -1.0 | -1.2 | i | -9.4 | -7.7 | -13.4 | . | . |
| Cc1ccc(NC(=O)CCN2C(=O)c3ccncc3C2=O)cc1 | -8.4 | 1.2 | 5.4 | . | . | . | . | 0.694 | 0.0 |
| O=C(NCC1(N2CCCCC2)CCCCC1)c1cccc(S(=O)(=O)Nc2ccccc2Cl)c1 | . | 1.6 | 11.4 | i | -4.0 | 0.2 | 7.2 | 0.647 | 4.7 |
| CCOCCOC(=O)c1cccc2c1-c1ccccc1C2=O | -0.8 | 1.8 | -2.6 | i | -5.5 | -8.8 | -0.4 | 0.625 | 2.2 |
| O=C(Cc1coc(-c2ccc(F)cc2)n1)Nc1ccccc1 | . | -1.4 | -10.9 | . | . | . | . | 0.684 | 3.7 |
| O=C(Nc1cc(N2CCOCC2)ncn1)NC1(C(F)(F)F)Oc2ccc(Cl)cc2O1 (configuration not stated) | 32.7 | . | . | . | . | . | . | 0.711 | 4.3 |
| Cc1ccc(S(=O)(=O)N2CCN(C(=O)c3cccc(-n4cccc4)c3)CC2)cc1 | -2.0 | -5.9 | 2.5 | i | 9.1 | 6.8 | 1.1 | 0.679 | 3.9 |
| CCc1nc(SCc2nc3ccccc3[nH]2)c2oc3ccccc3c2n1 | -8.0 | 1.3 | -11.7 | . | . | . | . | 0.75 | -1.0 |
| CCOCCCNC(=O)CCc1nnc2ccc(N3CCCCC3)nn12 | -2.2 | 0.3 | -2.0 | . | . | . | . | 0.647 | 5.1 |
| Cc1ccc(S(=O)(=O)SC/C=C/CSS(=O)(=O)c2ccc(C)cc2)cc1 | . | -2.9 | -5.2 | i | 16.1 | 3.5 | -4.9 | . | . |
| CCN(c1ccccc1)S(=O)(=O)c1ccc(C(=O)N2CCCC(C(F)(F)F)C2)cc1 (configuration not stated) | -2.0 | 0.9 | -15.0 | i | -8.0 | -11.1 | -1.4 | 0.651 | 3.0 |
| CCOc1ccc(NS(=O)(=O)c2ccc(SC)cc2)cc1 | 3.7 | 0.5 | 2.7 | . | . | . | . | 0.719 | -2.0 |
| Cc1cccc(NC(=O)Nc2ccccn2)c1C | . | 5.1 | -2.8 | i | 18.4 | 7.5 | 0.1 | 0.667 | 1.5 |
| COc1ccccc1CN(CC(=O)NCc1ccc2c(c1)OCO2)C(=O)c1ccc2c(c1)OCCO2 | -1.0 | 1.3 | 5.8 | . | . | . | . | 0.69 | 4.2 |
| COc1ccc(OC)c(NS(=O)(=O)c2cc(OC)ccc2OC)c1 | -9.7 | 2.2 | -0.6 | . | . | . | . | 0.709 | 1.2 |
| COc1cccc(C(C)(O)c2nc(-c3cccc(C(F)(F)F)c3)cs2)c1 (configuration not stated) | . | 3.5 | . | i | -47.0 | -69.2 | -6.1 | . | . |
| CC(c1ccccc1)n1c(-c2ccc(C(C)(C)C)cc2)n[nH]c1=S (configuration not stated) | 2.0 | 3.7 | -1.6 | . | . | . | . | 0.707 | 5.7 |

This is a subset (hit frequency here may not be typical).
